# Assay outcomes from PubChem.
# Menin-MLL FL inh: inhibitors of human menin-MLL interaction, wild-type MLL peptide | Fluorescence polarization, fluorescein-MLL peptide displacement from menin | FP activity change, % at 61.4 µM | 290,000 tested, under 10 active | AID 1766; inconclusive = falling polarisation curve, or a change in total fluorescence; inactive = total fluorescence flat and polarisation flat or rising; no compound was filed as active; the % refers to the polarisation; negative = inhibition;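 also: % of control where 0% means no effect; inhibitors lower the polarisation; unlabelled MLL peptide was the positive control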
# Sfp inh: inhibitors of Bacillus subtilis Sfp phosphopantetheinyl transferase; Q9F4F7; Biochemical Sfp PPTase activity, qHTS; Potency, µM, for inactives: max response, negative = inhibition, hits mostly inhibitors; 310,000 tested, 3.5% active; AID 1490; active = well fitted inhibition curve with a large enough effect; inconclusive = small, poorly fitted or top-dose-only effect, or another doubt; inactive = no such curve, though single readings can be large or run the other way;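 also: the enzyme is Sfp with the accession as filed and its product quenches rhodamine fluorescence; potency is read from the fitted curve at half-maximal effect; 0% = enzyme reaction without inhibitor and -100% = no enzyme wells; top concentration of the series not given in the record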
#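 Fluorescence-quenching assay with 15 nM Sfp, 5 uM rhodamine-CoA and 12.5 uM BHQ-2-labelled ybbR peptide in pH 7.6 Hepes/MgCl2 buffer. Enzyme was pre-incubated with compound for 15 min at room temperature. Rate was taken from the 30-min fluorescence change (525/598 nm).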
# gsp antag: gsp mutant antagonism; gsp-mutant cells, cAMP HTRF, 30 min; control for the full effect not named in the record; Potency, µM (doses to about 76.9 µM), inactives show top-dose activity change, negative = inhibition, hits mostly inhibitors; 340,000 tested, 0.4% active; AID 624288; active = falling curve of any shape with a large fitted effect; inconclusive = falling curve, mostly with a smaller effect; inactive = flat or rising curve; cell line not stated here;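 also: intracellular cAMP measured with PDE inhibitor Ro 20-1724 present during compound exposure; potency is read from the fitted curve at half-maximal effect; % is scaled to controls: 0 for no effect and ±100 for the full control effect; nearly all actives have a fitted effect of over 65% in size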
#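 Cells, 2000/well, grown 16–24 h in DMEM 10% FBS with 0.5 mg/ml G418, then compounds plus […] (300 uM addition stock), 30 min at 37C. cAMP read by HTRF (cAMP-d2 and anti-cAMP antibody-K in lysis buffer) after 30 min RT.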
# gsp ag: activates gsp, the McCune-Albright syndrome mutation; gsp mutant cells, cAMP HTRF, 30 min; control for the full effect not named in the record; Potency, µM (doses to about 76.9 µM), for the others: at the highest dose activation (cAMP increase), most hits filed as activators; 340,000 tested, 0.13% active; active = well fitted activation curve with a large enough effect; inconclusive = small, poorly fitted or top-dose-only effect, or another doubt; inactive = no such curve, though single readings can be large or run the other way; cell line not stated here;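 also: phosphodiesterase inhibitor Ro 20-1724 added with compounds to block cAMP breakdown; potency is read from the fitted curve at half-maximal effect; nearly all actives have a fitted effect of over 60% in size; about a fifth of the inactives were tested at one dose only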
#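 Cells in DMEM/10% FBS with G418 were pretreated with compounds in DMSO plus […] (300 uM stock) for 30 min at 37C. cAMP was measured by HTRF (cAMP-d2 plus anti-cAMP antibody-K) after 30 min at room temperature.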
# ClpP mod: qHTS Assay for Activators of ClpP. ATP-dependent Clp protease proteolytic subunit (Bacillus subtilis (strain 168)), P80244. Potency, µM (series often up to 57.5 µM), for inactives: at the top dose activity change, negative = active. AID 651965, 2013. 340,000 tested, 1.9% active. purified B. subtilis ClpP, FRET peptide cleavage, 20 min; active = well fitted falling curve with a large enough effect; inconclusive = small, poorly fitted or top-dose-only effect; inactive = no such curve, though single readings can be large or run the other way; also: potency is read from the fitted curve at half-maximal effect; the source files actives as falling curves though it sought activators and does not explain the sign; nearly all actives have a fitted effect of over 65% in size; many hits overshoot -100%
# Target sequence (P80244 whole entry, looked up): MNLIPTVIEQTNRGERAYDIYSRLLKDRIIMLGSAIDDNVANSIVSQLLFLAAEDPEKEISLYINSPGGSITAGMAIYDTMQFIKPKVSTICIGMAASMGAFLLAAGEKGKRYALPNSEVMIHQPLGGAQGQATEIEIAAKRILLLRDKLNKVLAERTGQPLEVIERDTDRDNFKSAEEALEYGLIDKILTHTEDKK
#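 Purified B. subtilis ClpP, 10 microg/mL final in Tris/HCl pH8 with KCl, BSA, glycerol and Tween-20, cleaved an Abz/nitrotyrosine-quenched decapeptide. Fluorescence (ex 320, em 430) was read at 0 and 20 min at room temperature. Delta was normalized to 5.8 microM ADEP and DMSO/no-enzyme controls.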
# TRPV1 PAM: potentiators of human vanilloid receptor 1 (TRPV1); AID 540277; TRPV1-expressing cells, Fluo-8 calcium influx, capsaicin EC20 potentiation; host cell line not named in the record; control for the full effect not named in the record; 320,000 tested, 0.02% active; Q8NER1; potentiation, % at 8.33 µM; active means potentiation above 80%; inconclusive means 30% to 80%; inactive means below 30%; also: 0% is about no effect
# Target sequence (Q8NER1 whole entry, looked up): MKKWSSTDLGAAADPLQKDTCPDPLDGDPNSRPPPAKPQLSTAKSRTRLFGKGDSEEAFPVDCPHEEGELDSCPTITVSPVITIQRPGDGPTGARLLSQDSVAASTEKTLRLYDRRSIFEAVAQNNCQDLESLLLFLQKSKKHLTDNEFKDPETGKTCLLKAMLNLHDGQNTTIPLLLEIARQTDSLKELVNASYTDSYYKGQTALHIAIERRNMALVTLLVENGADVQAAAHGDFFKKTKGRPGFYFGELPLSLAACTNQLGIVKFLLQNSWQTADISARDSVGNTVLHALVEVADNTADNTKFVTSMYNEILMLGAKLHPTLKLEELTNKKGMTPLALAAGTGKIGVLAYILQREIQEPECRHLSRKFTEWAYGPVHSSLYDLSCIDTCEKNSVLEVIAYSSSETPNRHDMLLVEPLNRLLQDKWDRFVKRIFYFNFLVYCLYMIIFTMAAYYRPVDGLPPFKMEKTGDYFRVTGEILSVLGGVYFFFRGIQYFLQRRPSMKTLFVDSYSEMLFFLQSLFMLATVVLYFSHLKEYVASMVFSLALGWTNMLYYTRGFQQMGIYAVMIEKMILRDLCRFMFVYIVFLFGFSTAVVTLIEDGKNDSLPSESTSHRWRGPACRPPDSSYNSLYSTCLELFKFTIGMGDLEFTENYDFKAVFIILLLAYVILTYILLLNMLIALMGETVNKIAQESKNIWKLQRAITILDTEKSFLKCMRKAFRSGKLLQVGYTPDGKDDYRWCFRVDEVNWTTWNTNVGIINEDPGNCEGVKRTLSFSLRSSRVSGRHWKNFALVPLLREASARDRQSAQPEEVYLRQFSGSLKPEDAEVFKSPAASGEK
#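 Fluo-8 calcium influx in TRPV1-expressing cells, kinetic read (ex 480/em 520 nm). Compound added and read 3 min for agonist activity, followed by capsaicin at EC20 final and 2 min further read for enhancement.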
# CtBP-E1A blk: CtBP/E1A binding inhibition; 340,000 tested, 0.49% active; activity change, % (concentration not given with the values); AlphaScreen GST-E1A/His-CtBP binding, 1536-well; active compounds read low; control for the full effect not named in the record; AID 651724; in the data active means activity change below about -65%; inconclusive means about -30% to -65%; inactive means above about -30%; also: % is scaled to controls: 0 for no effect and ±100 for the full control effect
#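 In 5 uL wells, 23 nL compound meets equimolar GST-E1A and His-CtBP (5X stock 125 nM each) for 2 h, 37 °C. Beads (5X, 50 ug/mL) then 1 h, 37 °C, dark.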
# * = called active by the depositor; ? = inconclusive; . = not tested or not shown; [ ] = remark or other dose.
# Preview, two compounds:
SMILES,Menin-MLL FL inh,Sfp inh,gsp antag,gsp ag,ClpP mod,TRPV1 PAM,CtBP-E1A blk
Cc1c(C(=O)NCCSCc2ccco2)cccc1[N+](=O)[O-],-0.3,8%,-3%,21%,2.8%,-11,-2
COc1cc(C(=O)NCCN2CCOCC2)cc(OC)c1OC,4.7,0%,-8%,0%,-1.1%,5,-1

# Results, from the start:
SMILES,Menin-MLL FL inh,Sfp inh,gsp antag,gsp ag,ClpP mod,TRPV1 PAM,CtBP-E1A blk
Cc1c(C(=O)NCCSCc2ccco2)cccc1[N+](=O)[O-],-0.3,8%,-3%,21%,2.8%,-11,-2
COc1cc(C(=O)NCCN2CCOCC2)cc(OC)c1OC,4.7,0%,-8%,0%,-1.1%,5,-1
COc1ccc2c(n1)Sc1nc3ccccc3nc1N2,?,-9%,5%,?,.,11,-5
COc1ccc(NC(=O)Nc2cccc(Cl)c2Cl)c(OC)n1,2.1,-3%,1%,?,.,5,0
CCOC(=O)C1CCN(Cc2cc(=O)oc3cc(C)ccc23)CC1,-3.0,12%,-5%,-3%,-2.0%,?,11
c1coc(-c2nc(N=C3N=c4ccccc4=N3)[nH]c2-c2ccco2)c1,.,.,.,-45%[inhibitor],-2.4%,.,-1
COc1cc(OC)cc(-c2cc3cc4c(cc3cn2)OCO4)c1,.,.,0%,.,?,.,-4
C=CCn1c(SCC(=O)c2ccc(OC)cc2)nnc1-c1cc2cccc(OC)c2o1,0.6,1%,-21%,9%,-12%,4,-6
CCN(C(=O)c1cc(S(=O)(=O)N2CCOCC2)cn1C)c1cccc(C)c1,4.9,17%,-4%,15%,-1.5%,-16,2
CCOC(=O)c1c(C)n(C)c2cc(OCCN(CC)CC)ccc12,-0.6,6%,8%,14%,-3.4%,6,-9
OC(COc1c(Br)cc(Br)cc1Br)CN1CCOCC1 (stereo not given),-1.1,-1%,9%,-18%,-0.6%,-11,1
O=C(Cc1ccc(Cl)cc1Cl)Nc1ccncc1,0.5,9%,-5%,8%,-1.1%,2,-1
COc1cc(OC)c(NS(=O)(=O)c2ccc(Cl)c(C(=O)OC(C)C(=O)N3CCCC3)c2)cc1Cl (stereo not given),2.4,-2%,?,8%,-1.4%,-12,-25
O=C(CN1C(=O)COc2ccccc21)NCCCN1CCOCC1,4.8,5%,9%,-2%,.,-1,-2
CCCCCOC(=O)Cn1c(=O)c2c(nc(N3CCOCC3)n2C)n(C)c1=O,0.2,-3%,3%,?,0.4%,0,-1
COc1ccc(NC(=O)Cn2c(=O)n(-c3ccccc3)c(=O)c3sccc32)c(OC)c1,-0.5,-19%,13%,0%,0.1%,0,4
COc1ccc(CC(=O)OCC(=O)N2CCCc3ccccc32)cc1,.,.,7%,22%,-1.2%,2,-18
O=c1c2oc3ccccc3c2ncn1Cc1cccc(Cl)c1,-2.8,9%,2%,?,.,4,-10
Cc1ccc(NC(=O)CSc2nnc3ccccn23)c(Cl)c1,.,.,.,18%,-10%,.,-4
CC1CCCCC1Nc1nc2ccc(Cl)cc2n2cnnc12 (stereo not given),4.6,4%,-9%,?,-11%,-22,-2
O=C(O)C1CCCN(S(=O)(=O)c2ccc(Br)cc2)C1 (stereo not given),-0.2,3%,-7%,8%,0.7%,-1,53
CCc1nnc(NC(=O)c2nn(-c3ccccc3)nc2C)s1,0.8,-7%,-5%,4%,-2.6%,11,.
COc1ccc(NC(=O)CCNS(=O)(=O)c2ccccc2F)cc1S(=O)(=O)N1CCOCC1,.,.,0%,4%,-0.7%,.,.
O=C(NCc1ccccc1)C1CCCN(C(=O)Nc2ccccc2)C1 (stereo not given),2.2,7%,0%,8%,0.0%,?,6
COc1cccc(C(=O)/C=C/Nc2ccc(S(=O)(=O)Nc3onc(C)c3C)cc2)c1,3.1,9%,2%,?,-0.1%,-1,-7
O=C(Nc1ccc(Br)cc1)c1ccc2ncsc2c1,10,?,-10%,27%[15.4 µM],.,-1,-4
CCOc1ccc(OCC)c(NC(=O)CC2Oc3ccccc3NC2=O)c1 (stereo not given),-1.5,?,-5%,5%,2.1%,-10,0
CCNC(=O)c1c(NC(=O)c2cc(-c3cc(C)cc(C)c3O)n[nH]2)sc2c1CCCC2,.,.,3%,9%[15.4 µM],.,.,-2
Cc1cc(C)c(NC(=O)CSc2nc3ccc(NC(=O)CSc4nnnn4Cc4ccccc4)cc3s2)c(C)c1,.,.,-2%,1%,-5.9%,.,-3
N/C(=N\OC(=O)COc1ccc2ccccc2c1)c1cccnc1,6.2,?,?,13%,2.6%,23,14

# Record cards, from the list above. Order of screens: Menin-MLL FL inh | Sfp inh | gsp antag | gsp ag | ClpP mod | TRPV1 PAM | CtBP-E1A blk
# Entry for `O=C(NCc1ccccc1)C1CCCN(C(=O)Nc2ccccc2)C1` (stereo not given) : 2.2 | 7% | 0% | 8% | 0.0% | ? | 6
# Entry for `O=C(Nc1ccc(Br)cc1)c1ccc2ncsc2c1` : 10 | ? | -10% | 27%[15.4 µM] | . | -1 | -4
# Entry for `Cc1ccc(NC(=O)CSc2nnc3ccccn23)c(Cl)c1` : . | . | . | 18% | -10% | . | -4
# Entry for `CCN(C(=O)c1cc(S(=O)(=O)N2CCOCC2)cn1C)c1cccc(C)c1` : 4.9 | 17% | -4% | 15% | -1.5% | -16 | 2
# Entry for `COc1cc(C(=O)NCCN2CCOCC2)cc(OC)c1OC` : 4.7 | 0% | -8% | 0% | -1.1% | 5 | -1

# (more compounds)
SMILES,Menin-MLL FL inh,Sfp inh,gsp antag,gsp ag,ClpP mod,TRPV1 PAM,CtBP-E1A blk
COc1ccc(Cn2cccc(NC(=O)Nc3cccc(OC)c3)c2=O)cc1,0.8,4%,-3%,-6%,3.3%,-5,?
COC(=O)/C=C/C(=O)Nc1cccnc1,-0.3,19%,-6%,-43%,-1.1%,4,2
COc1cccc(C2CC(c3cccs3)=NN2S(C)(=O)=O)c1OC (stereo not given),-1.6,2%,2%,-2%[15.4 µM],.,-5,-14
CCC(=O)Nc1ccc(-c2nnc(-c3ccccc3)o2)cc1,0.5,11%,27%,-6%,2.8µM*,4,0
O=C(CN(c1ccccc1F)S(=O)(=O)c1ccccc1)Nc1ccccc1C(=O)N1CCOCC1,-2.1,-2%,-1%,2%,.,3,-4
COc1ccc(OC)c(CN2CCC(C(=O)N(C)CCc3ccc(OC)c(OC)c3)CC2)c1,2.3,?,12%,-16%,0.8%,2,-2
COC(=O)c1ccc(N2CCN(C)CC2)c(NC(=O)c2cc3ccccc3o2)c1,0.1,1%,16%,?,-0.1%,-8,1
CN(C)c1ccc(C(=O)/C=C/c2ccccc2)cc1,8.5,-28%,-14%,-1%,.,-6,4
CC(C)Sc1nc2c([nH]c3ccccc32)c(=O)n1C,1.1,10%,-10%,1%[15.4 µM],.,?,-6
CC(C)(CC(=O)O)CC(=O)Nc1ccc(Cl)c(Cl)c1,-1.0,27%,-5%,0%[15.4 µM],-0.6%,?,-11
O=C(COC(=O)/C=C/c1cccc(C(F)(F)F)c1)NCc1ccco1,.,.,-4%,2%[15.4 µM],.,7,-2
COc1ccccc1NC(=O)N1CCCC1C(=O)NCc1ccccc1 (stereo not given),-6.2,5%,1%,-10%,-0.5%,22,2
Cc1ccc(NC(=O)CN2CCOCC2)cc1Cl,1.2,19%,9%,-24%[15.4 µM],.,9,-3
O=C(OCc1cnc(Cl)s1)c1ccccc1Cl,2.7,11%,3%,?,-0.9%,-1,23
CC1CCN(C(=O)c2cccc(S(=O)(=O)N3CCN(c4ccccc4)CC3)c2)CC1,.,.,8%,-16%,1.0%,20,2
CCc1ccc(NC(=O)COC(=O)c2cccs2)cc1,5.7,15%,7%,1%,.,-9,6
CN(C)C(=S)Oc1ccccc1C1SCCS1,.,.,.,?,-0.5%,.,6
COc1ccccc1N(Cc1ccccc1)S(=O)(=O)c1cccc(C(=O)Nc2ccccn2)c1,.,24%,-15%,-2%,-9.7%,3,-2
COc1cc(C(=O)NCc2ccncc2)cc(OC)c1OC,3.7,14%,5%,22%,.,-2,0
CCS(=O)(=O)Nc1cc2c3c(c1)CCC(=O)N3CCC2,-2.4,13%,9%,9%,-3.7%,-1,.
CCn1cc(/C=C(\NC(=O)c2ccc(OC)c(OC)c2)C(=O)NCCCO)c2ccccc21,-5.7,14%,1%,18%,0.0%,2,1
COc1ccc(S(=O)(=O)NCCCn2ccnc2)cc1Cl,2.4,8%,6%,9%,1.1%,4,-1
OC[C@H]1O[C@@H](O[C@@H]2[C@@H](CO)O[C@@](O)(CO)[C@H]2O)[C@H](O)[C@@H](O)[C@H]1O,.,.,1%,.,2.3%,1,6
CC(C)c1ccc(CN(C)CC(O)c2ccccc2)cc1 (stereo not given),1.8,-3%,10%,11%[15.4 µM],.,2,1
CC(C)=C(NC(=O)c1ccccc1Cl)C(=O)NCCc1nc2ccccc2[nH]1,.,.,.,-16%,-0.5%,.,3
COc1ccc(C(C)NC(=O)C2CCCO2)cc1OC (stereo not given),6.8,11%,2%,?,-0.6%,0,8
O=C(Nn1c(-c2ccc(F)cc2)nc2ccccc2c1=O)c1cccnc1,-2.9,19%,-2%,3%,.,10,-3
O=C(O)Cn1nc(-c2ccccc2)cc1-c1ccccc1,-3.3,7%,6%,14%[15.4 µM],-2.1%,4,3
O=C(Cc1ccc(Cl)cc1)c1c[nH]c(C(=O)NCCCN2CCOCC2)c1,-0.2,-3%,2%,22%,.,?,8
Cc1ccc(Cl)cc1N1CCN(C(=O)c2ccc(CN3CCOCC3)cc2)CC1,4.5,-25%,7%,24%,-0.9%,-10,4
CCOC(=O)N1CCN(Cc2nc3cc(NC(=O)CC(C)C)ccc3n2CC)CC1,-4.7,8%,5%,-12%,?,-6,.
CCCNC(=O)c1ccccc1N1CCN(CCCCN2C(=O)C3CCCCN3C2=O)CC1 (stereo not given),-22,14%,3%,21%,-3.6%,-11,.
COCC(=O)N(Cc1cc2cc(OC)ccc2[nH]c1=O)c1ccccc1,12,0%,0%,-44%,?,-1,-2
